# NS1 function inh – influenza NS1 inhibition. S. cerevisiae slowed by influenza A NS1, growth recovery by OD600. Potency, µM (top dose mostly 46.1 µM), for the others: at the top dose activity, positive = more growth. actives 0.4% (n = 270,000). AID 2326; active means well fitted rising curve with a large enough effect; inconclusive means small, poorly fitted or top-dose-only effect; inactive means no such curve, though single readings can be large or run the other way; note: nearly all actives have a fitted effect of over 50% in size
#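 Read-out: OD600 growth recovery of NS1-expressing budding yeast. Cells grown overnight at 30C in -URA glucose medium, washed, resuspended and diluted 1:100 in 2% galactose assay medium, pH 6.0. Same strain lacking NS1 served as positive control.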
# 2A StopGo – FMDV 2A StopGo reporter, luciferase signal | human cells with a luciferase reporter of 2A StopGo recoding; control for the full effect not named in the record | Potency, µM (highest dose often 57.9 µM), for the others: at the highest dose signal change, negative = less light | actives 1.2% (n = 410,000) | AID 1159524; active = well fitted falling curve with a large enough effect; inconclusive = small, poorly fitted or top-dose-only effect; inactive = no such curve, though single readings can be large or run the other way; tested in HEK293T cells; note: % is set by controls: 0 for no effect and ±100 for the full control effect; nearly all actives have a fitted effect of over 45% in size; luciferase light after 4 h
# Marburg entry inh – blocks Marburg virus binding to or entry into cells; Potency, µM (highest dose often 37.8 µM), for inactives: at the top dose activity change, negative = inhibition, hits mostly inhibitors; Marburg virus pseudotyped entry inhibition, cell reporter; control for the full effect not named in the record; about a third of the inactives were read at about 46 µM; AID 540276; actives 1.8% (n = 300,000); active = well fitted inhibition curve with a large enough effect; inconclusive = small, poorly fitted or top-dose-only effect, or effect the other way; inactive = flat fitted curve, though single readings scatter; tested in HEK293 cells; about a fifth of its hits are not listed in these tables; note: % is set by controls: 0 for no effect and ±100 for the full control effect; luciferase read-out
# Cruzain noTriton – blocks cruzain activity in detergent-free assay; P25779; purified cruzain, Z-FR-AMC fluorescence, no detergent; Potency, µM, without a hit: max response, negative = inhibition, actives largely listed as inhibitors; actives 2.3% (n = 200,000);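 note: plate controls were enzyme without inhibitor for no effect and buffer without enzyme for full effect; nearly all actives have a fitted effect of over 40% in size; top concentration of the series not given in the record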
# Target sequence (P25779 123-467 limits assumed): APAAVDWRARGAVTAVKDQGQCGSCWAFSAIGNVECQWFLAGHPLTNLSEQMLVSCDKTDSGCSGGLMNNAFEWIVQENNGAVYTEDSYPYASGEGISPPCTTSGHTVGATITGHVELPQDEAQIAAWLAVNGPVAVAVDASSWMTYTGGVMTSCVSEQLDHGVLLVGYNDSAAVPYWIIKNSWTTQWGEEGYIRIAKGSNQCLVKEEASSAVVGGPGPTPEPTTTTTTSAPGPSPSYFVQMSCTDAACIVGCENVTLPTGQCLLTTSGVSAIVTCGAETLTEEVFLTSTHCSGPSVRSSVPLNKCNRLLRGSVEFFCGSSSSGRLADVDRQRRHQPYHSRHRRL
#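 Purified cruzain at 1.5 nM, pre-incubated 15 min with compound at room temperature in 100 mM sodium acetate pH 5.5, 5 mM DTT, 0.00005% Triton X-100. Reaction started with 2 uM Z-FR-AMC; AMC fluorescence increase over 60 s gives rate.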
# Lassa entry inh – inhibitors of Lassa virus binding or cell entry; Lassa virus pseudotype entry inhibition, cell reporter; control for the full effect not named in the record; Potency, µM (highest dose often 37.9 µM), for inactives: at the highest dose activity change, negative = inhibition, hits mostly inhibitors; actives 1.2% (n = 300,000); AID 540256; active means well fitted inhibition curve with a large enough effect; inconclusive means small, poorly fitted or top-dose-only effect, or effect the other way; inactive means flat fitted curve, though single readings scatter; tested in HEK293 cells; note: % is set by controls: 0 for no effect and ±100 for the full control effect; nearly all actives have a fitted effect of over 50% in size; luciferase read-out
# SARS PLpro yeast – inhibitors of SARS-CoV papain-like protease in yeast; Potency, µM (top dose mostly 32.9 µM), for the others: top-dose activity, positive = growth rescue; S. cerevisiae expressing SARS-CoV PLpro, growth rescue; control for the full effect not named in the record; AID 485353; actives 0.19% (n = 330,000); active means well fitted rising curve with a large enough effect; inconclusive means small, poorly fitted or top-dose-only effect; inactive means no such curve, though single readings can be large or run the other way; note: 0% is about no effect; nearly all actives have a fitted effect of over 55% in size; growth read by luminescence after 48 h
# RE007 growth inh – less growth of the S. pombe RE007 Vpr strain | actives 0.21% (n = 360,000) | Potency, µM (doses to about 92.2 µM), inactives show at the top dose activity change, negative = less growth | S. pombe RE007 Vpr strain, BacTiter-Glo ATP luminescence, 24 h; control for the full effect not named in the record; active = well fitted falling curve with a large enough effect; inconclusive = small, poorly fitted or top-dose-only effect; inactive = no such curve, though single readings can be large or run the other way;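 note: % is set by controls: 0 for no effect and ±100 for the full control effect; nearly all actives have a fitted effect of over 50% in size; the assay follows cell death caused by Vpr and the record does not say whether a fall means rescue or toxicity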
#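 Fission yeast strain RE007, carrying one chromosomally integrated HIV-1 vpr copy, was seeded at OD 0.01 in PMG+AL medium with 23 nL pinned compound. After 24 h at 30 °C and 99% humidity, viability was read by BacTiter-Glo luminescence.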
# Cruzain inh Det – cruzain (T. cruzi) inhibition with detergent. purified cruzain, Z-FR-AMC fluorescence, 0.01% Triton. Potency, µM, inactives show max response, negative = inhibition, most hits filed as inhibitors. actives 0.43% (n = 200,000). AID 1478;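 note: plate controls were neutral wells for no effect and buffer without enzyme for full effect; nearly all actives have a fitted effect of over 40% in size; top concentration of the series not given in the record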
#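 Steps: dispense cruzain (1.5 nM final) in acetate buffer pH 5.5 with DTT and 0.01% Triton X-100; pin-transfer compounds; incubate 15 min RT; add Z-FR-AMC (2 uM final); read fluorescence every 30 s, using the 60 s intensity change.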
# The depositor's hits bear a star; ? = inconclusive; . = no result given; & = joins results of further samples; [ ] = dose if it differs, or a comment. Unless noted, calls come from the whole dose curve; as a rule, active = well fitted curve in the direction sought with a large enough effect; inconclusive = small, poorly fitted or top-dose-only effect, or another doubt; inactive = no such curve, though single readings can be large; an effect the other way counts as inactive or inconclusive. Potency is the fitted concentration of half-maximal effect.
compound,NS1 function inh,2A StopGo,Marburg entry inh,Cruzain noTriton,Lassa entry inh,SARS PLpro yeast,RE007 growth inh,Cruzain inh Det
COc1ccc(-c2cc(=O)c3cc(OC)c(OC)cc3[nH]2)cc1,?,32%[activator],20%,2%,15%,11%,20%,0.9%
CCNC(=S)N(CCO)Cc1cc2cc3c(cc2[nH]c1=O)OCO3,-7%,9%,.,.,.,3%,-2%,.
NC(=O)COc1ccc(C2c3c(oc4ccccc4c3=O)C(=O)N2CC2CCCO2)cc1 (configuration not stated),-2%,1%,-1%,-6%,0%,.,-4%,1.7%
Cc1ccc(O)c(-c2cc(-c3cccc(F)c3)n[nH]2)c1,-88%,36%[activator],?,3%,?,-30%,?,-11%
NC(=O)CC[C@@H]1NC(=O)[C@@H]2CCCN2C(=O)c2cc([N+](=O)[O-])cc(I)c2NCCC[C@@H](C(=O)NC(CC(=O)O)C(N)=O)NC1=O (some centres not stated),26%,-17%,?,?,-2%,1%,7%,-5.9%
C/C(=N\OC(=O)c1ccc(Cl)cc1)c1nccs1,-57%,-5%,-1%,-7%,14%,-5%,-13%[3.69 µM],4.9%
CC(C)Oc1ccc(Br)cc1/C=N\NC(N)=S,18%,?,?,0.032µM*,?,15%,-1%,0.25µM*
O=C1CCCCC1Sc1nnc(-c2ccc3c(c2)OCO3)o1 (configuration not stated),.,4µM*,5.6µM*,.,?,-4%,-12%,.
Cc1ccc2c(c1)N(S(=O)(=O)c1cc(-c3cc(C)no3)ccc1C)CCO2,?,0%,.,.,.,-3%,32%,.
Cc1cccc(NC(=O)Cn2c(O)c(N=NC(=O)c3ccncc3)c3ccccc32)c1,.,-12%,-1%[46.1 µM],.,1%,0%,14%,.
CCOC(=O)C1(Cc2cccc(Cl)c2)CCCN(C(=O)c2occc2C)C1 (configuration not stated),-111%,-18%,.,.,.,-20%,10%,.
COc1ccc(/C=N/NC(=O)c2snnc2C)c(OC)c1OC,.,-8%,1%[46.1 µM],.,-4%[46.1 µM],-1%,-17%,.
CCCCCNCC(=O)Nc1cccc(C(=O)Nc2cccc(C(F)(F)F)c2)c1,-1%,?,?,.,?,0%,-3%,.
COc1ccc(N2CCN(C(=O)CN(C3CCCCC3)S(C)(=O)=O)CC2)cc1,2%,-13%,?,.,-18%,2%,-4%,.
COC(=O)CN1C(=O)[C@H]2[C@@H](/C=C/c3ccccc3)N3C(=O)CN(CC4CC4)C(=O)[C@@]3(Cc3ccccc3)[C@H]2C1=O,-14%,-1%,.,.,.,-4%,0%,.
CN1C(C(=O)NCCc2cccs2)CC2Cn3c(nc4cc5ccccc5cc43)C21 (configuration not stated),-33%,-19%,.,.,.,2%,-4%,.
COc1ccc(CNC(=O)c2nc(Cn3nc(C)c(Br)c3C)no2)cc1OC,.,-17%,?,24%,-6%[46.1 µM],.,.,-1.1%
COc1ccc(-n2nc(C(=O)NCc3ccc(F)cc3Cl)c3c4ccccc4n(C)c3c2=O)cc1Cl,.,-17%,11%[46.1 µM],-2%,29%[46.1 µM],.,.,0.2%
CCCCc1nnc(SCC(=O)Nc2nccs2)n1C,2%,-6%,0%[46.1 µM],.,1%[46.1 µM],-2%,0%,.
O=C(NCc1ccncc1)C1CCN(S(=O)(=O)c2cc(Cl)ccc2Cl)CC1,3%,-20%,-8%[46.1 µM],.,-11%[46.1 µM],-10%,0%,.
Cc1cc(C)n(CC(C)NC(=O)c2cc(COc3c(F)cccc3F)on2)n1 (configuration not stated),1%,-5%,4%,.,4%,-1%,29%,.
C=CCOc1ccc(/C=C2\SC(=S)N(N3CCOCC3)C2=O)cc1,-1%,17%,0%[46.1 µM],.,-2%,0%,-19%,.
COc1c(C=NNC(N)=O)c(OC)c(OC)c2c1CCO2,.,13%,15%[46.1 µM],.,6%[46.1 µM],.,-8%,.
COc1ccccc1N1CCN(c2nc(C)nc3c2oc2ccccc23)CC1,-199%,28µM*,?,?,?,-42%,2%,-6.2%
CCS(=O)(=O)N1CCCC(C(=O)NCc2ccccc2Cl)C1 (configuration not stated),-4%,1%,11%,5%,7%,-1%,28%,4.6%
CCOC(=O)c1cc2c(nc1N)CCCC2,2%,-17%,.,.,.,0%,-18%,.
CCOC(=O)NC(NC(=O)OCC)C(=O)c1ccccc1,-10%,16%,2%,9%,-7%,0%,21%,-1.6%
O=C(CCCCC(=O)OCC1CCCO1)OCC1CCCO1 (configuration not stated),.,-4%,-8%[46.1 µM],.,0%[46.1 µM],.,7%,.
O=C(Nc1ccc(F)cc1)Nc1ccc(N2CCCC2)c(S(=O)(=O)Nc2ccccc2Cl)c1,23%,-22%,7.9µM*,3.2µM*,7.3µM*,4%,-6%,-1.3%
O=C(Nc1nnc(S(=O)(=O)Cc2ccc(F)cc2)s1)c1ccccc1F,-36%,-11%,.,.,.,-6%,-9%,.
CCOc1ccc2nc(SCC(=O)c3ccccc3)sc2c1,-1%,.,?,-6%,-29%,4%,0%,-2.1%
COc1ccccc1N1CCN(C(=O)Cn2nnc(-c3ccncc3)n2)CC1,-1%,-9%,-16%,-7%,17%,2%,7%,5.3%
Cc1ccccc1-c1noc(CCC(=O)Nc2cccc(C)c2C)n1,.,-14%,-5%[46.1 µM],-13%,11%[46.1 µM],.,.,-3.2%
Cc1cc(/C=C(\C#N)C(=O)Nc2ccccc2)c(C)n1-c1ccc(F)cc1,.,14%,8%[46.1 µM],1%,-22%[46.1 µM],.,.,0.2%
O=c1[nH]ncc(N/N=C\c2cccs2)c1Cl,.,11%,?,.,-4%[46.1 µM],0%,7%,.
Cc1c(NS(=O)(=O)c2ccc3c(c2)n(C)c(=O)n3C)c(=O)n(-c2ccccc2)n1C,-2%,10%,-2%&-2%,1%,11%,-3%,8%,5.5%
CN(C)S(=O)(=O)c1ccc(-c2ccccc2)cc1,10%,-10%,7%,-3%,-2%,0%,-19%,-9.2%
COc1ccc([N+](=O)[O-])cc1NC(=O)C1CCCN1S(=O)(=O)c1cccs1 (configuration not stated),.,-18%,-10%[46.1 µM],.,?,-6%,12%,.
COc1ccc(Cl)cc1C(=O)NNC(=O)CCNC(C)=O,-4%,8%,?,.,5%,1%,2%,.
CCCCC#Cc1cncc(C(=O)N/N=C/c2ccccc2)c1,-6%,-13%,-7%,.,-16%,-1%,14%,.
COc1ccccc1CN1CC(C(=O)NCCN2CCOC2=O)CCC1=O (configuration not stated),-8%,4%,?,.,22%,0%,-9%,.
N#CCC(=O)N/N=C/c1cn(Cc2ccc3ccccc3c2)c2ccccc12,5%,?,?,.,?,0%,-3%,.
COC(=O)NCC(c1ccc2c(c1)OCO2)N1CCN(c2ccccc2)CC1 (configuration not stated),2%,-21%,.,.,.,1%,-10%,.
Cc1c(-n2c(O)c(C3=c4ccccc4=NC3=O)sc2=O)c(=O)n(-c2ccccc2)n1C,.,-17%,13%[46.1 µM],.,19%,-1%,9%,.
CCOC(=O)CNC(=O)Nc1cc(C(=O)NCc2ccc(C(C)C)cc2)ccc1N1CCCC1,.,-17%,.,6%,22%[46.1 µM],.,.,-3.1%
N#Cc1cccc(NC(=O)Cc2ccccc2)c1,-1%,23%,6%[46.1 µM],.,1%[46.1 µM],1%,4%,.
Cc1nn2c(NCc3ccccn3)cc(C(C)(C)C)nc2c1-c1ccccc1,-4%,?,.,.,.,-2%,29%,.
Cc1cc(C)nc(NC(=O)NC(=O)c2ccccc2)n1,-4%,2%,-4%[46.1 µM],.,?,4%,14%,.
COCCNCC(=O)C12CC3CC(CC(C3)C1)C2,-8%,.,4%,3%,0%,-2%,-10%,0.0%
Cc1ccc(-c2noc(CSc3nnc(C)n3-c3ccc(F)cc3)n2)cc1,.,-19%,13%[46.1 µM],7%,-7%[46.1 µM],.,.,-4.1%
CCCN(Cc1nnc(-c2ccccc2Cl)o1)C(=O)c1ccc(C)c(S(=O)(=O)N2CCOCC2)c1,.,3%,-8%,.,-25%,?,-6%,.
O=C(COC(=O)CCC(=O)c1ccc(F)cc1)NCCc1ccccc1,.,0%,?,.,?,-10%,4%,.
Nc1ccc(S(=O)(=O)c2cccc(N)c2)cc1,7%,13%,-19%,-4%,2%,0%,5%,-1.5%
COc1ccc(C2C(C#N)=C(N)OC3=C2C(=O)CC(C)(C)C3)cc1Cn1nc(C)c([N+](=O)[O-])c1C (configuration not stated),12%,-3%,-1%,12%,.,20%,-4%,-5.4%
O=C(C1COc2ccccc2O1)N1CCN(c2ccccc2F)CC1 (configuration not stated),-4%,.,1%,-11%,3%,-8%,-11%,-3.0%
Cn1c(=O)c2c3c(sc2n2c(SCC(N)=O)nnc12)CC(C(C)(C)C)CC3 (configuration not stated),-1%[9.22 µM],-27%,-1%,?,0%,6%,2%,-6.6%
CC(C)CC(=O)Nc1nnc(S(=O)(=O)Nc2ccccc2)s1,-3%,-17%,.,.,.,0%,14%,.
CCC(=O)N1CCN(c2ccc(NC(=O)c3cc4ccccc4o3)cc2)CC1,5%,?,-10%,30%,-12%,-2%,41%,-6.9%
O=C(CSc1nc2c([nH]c3ccccc32)c(=O)n1-c1ccc(Cl)cc1)NC1CCCCC1,.,-19%,.,7%,-9%[46.1 µM],.,.,2.0%
O=C(CNC(=O)c1ccccc1Cl)OCc1cc(=O)n2nc(C3CC3)sc2n1,.,-23%,.,?,9%[46.1 µM],.,.,?
CC1=C(C(=O)OCc2ccccc2)C(c2ccc(Cl)cc2Cl)NC(=O)N1CCCC(=O)O (configuration not stated),-9%,?,0%,-7%,17%,1%,4%,-9.7%
COCCn1c(SCC(=O)NC2CCCC(C)C2C)nc2ccccc2c1=O (configuration not stated),.,-14%,-23%[46.1 µM],.,6%,0%,3%,.
COc1ccc2nc3oc(C(=O)N4CCC(C(N)=O)CC4)cc3cc2c1,-5%,88%[activator],2%,-1%,10%,5%,1%,-11%

# Bioassay records as filed in PubChem BioAssay.
